nsP2pro primary = inhibitors of chikungunya virus nsP2 protease | Q8JUX6 | FRET peptide cleavage, nsP2pro, fluorescence 1 h | 31,000 compounds, 1.1% hits | Potency, µM (highest dose often 24.9 µM), for the others: top-dose activity change, negative = inhibition, actives largely listed as inhibitors; active means well fitted inhibition curve with a large enough effect; inconclusive means small, poorly fitted or top-dose-only effect; inactive means no such curve, though single readings can be large or run the other way; note: nearly all actives have a fitted effect of over 60% in size; a reference inhibitor and vehicle were the controls
* marks the source's active call; other numbers are inactive results; i = inactive; ? = inconclusive; & = joins results of further samples; ! = not confirmed by another sample; [ ] = another dose, or the depositor's remark. % is set by controls: 0 for no effect and ±100 for the full control effect; potency is the fitted concentration of half-maximal effect. Only part of the results is shown; count on the stated rates, not on these rows.

The first 4 entries, ahead of the listing:
SMILES	nsP2pro primary
CC(C)(CNC(=O)c1cccc(-c2noc(C(F)(F)F)n2)c1)c1coc(-c2ccccc2)n1	3%&-11%
COc1nc(C)nc(Cl)c1NC1=NCCN1	0%
CN1CCC(COc2cnc(-c3cccc(Cn4nc(-c5cccc(C#N)c5)ccc4=O)c3)nc2)CC1	46%&80%[activator]
COc1cc2nc(-c3cc(F)ccc3O)nc(N[C@@H]3CNC[C@H]3C(C)(C)O)c2cc1OC	34%[activator]

The list itself, repeating the preview:
SMILES	nsP2pro primary
CC(C)(CNC(=O)c1cccc(-c2noc(C(F)(F)F)n2)c1)c1coc(-c2ccccc2)n1	3%&-11%
COc1nc(C)nc(Cl)c1NC1=NCCN1	0%
CN1CCC(COc2cnc(-c3cccc(Cn4nc(-c5cccc(C#N)c5)ccc4=O)c3)nc2)CC1	46%&80%[activator]
COc1cc2nc(-c3cc(F)ccc3O)nc(N[C@@H]3CNC[C@H]3C(C)(C)O)c2cc1OC	34%[activator]
CC1CCC(C(C)C)C(OC(=O)c2ccccc2O)C1 (configuration not stated)	5%
COc1cc(Nc2c(C#N)cnc3cc(OCCCN4CCN(C)CC4)c(OC)cc23)c(Cl)cc1Cl	262%&146%[activator]
Fc1ccc(C(c2ccc(F)cc2)N2CCNCC2)cc1	3%
COC(=O)N1CCC(n2ncc3c(N4CCOCC4)nc(-c4ccc(NC(=O)Nc5ccc(CO)cc5)cc4)nc32)CC1	-15%
COc1cc2nc(N3CCN(C(=O)C4COc5ccccc5O4)CC3)nc(N)c2cc1OC (configuration not stated)	6%&9%
Oc1cccc(Nc2ccnc3[nH]c4ccccc4c23)c1	97%[activator]
CC[C@]1(O)CC2CN(CCc3c([nH]c4ccccc34)[C@@](C(=O)OC)(c3cc4c(cc3OC)N(C)[C@H]3[C@@](O)(C(=O)OC)[C@H](OC(C)=O)[C@]5(CC)C=CCN6CC[C@]43[C@@H]65)C2)C1 (some centres not stated)	23%&77%
O=C(NC[C@H](O)CN1CCc2ccccc2C1)c1cc(NC2COC2)ncn1	-9%
CC(C)CCn1c(CN2CCN(C(=O)C(C)C)CC2)nc2c1c(=O)n(C)c(=O)n2C	-14%
OCC1OC(c2ccc(Cl)c(Cc3ccc(OC4CCOC4)cc3)c2)C(O)C(O)C1O (configuration not stated)	-3%
CCOC(=O)[C@H](CCc1ccccc1)N[C@@H](C)C(=O)N(CC(=O)O)C1Cc2ccccc2C1	?
N#Cc1c(Oc2ccc(F)c(NC(=O)Cc3cccc(C(F)(F)F)c3)c2)ccc2nc(NC(=O)C3CC3)sc12	-4%
CCOC(=O)c1cnn(-c2ccc(NC(=O)C(Cl)=C(Cl)Cl)cc2)c1C(F)(F)F	-1%
NS(=O)(=O)c1cc2c(cc1C(F)(F)F)NC(Cc1ccccc1)NS2(=O)=O (configuration not stated)	-3%
Cc1cn2c(N)c(Cl)cc(C(=O)NCC3CCN(CC(C)C)CC3)c2n1	36%[activator]
Cc1cc(N(C)C)ccc1-c1nc2ccc(-c3nc4ccc(N5CCN(C)CC5)cc4[nH]3)cc2[nH]1	36%[activator]
C/C(=N\O)[C@@H](C)NCC(C)(C)CN[C@H](C)/C(C)=N/O	84%[activator]
O=c1[nH]c2ccc(C#CCN3CCC(Cc4ccccc4)CC3)cc2[nH]1	-6%
CC(C)=CCC[C@](C)(O[C@@H]1O[C@H](CO)[C@@H](O)[C@H](O)[C@H]1O)[C@H]1CC[C@]2(C)[C@@H]1[C@H](O)CC1[C@@]3(C)CC[C@H](O)C(C)(C)C3[C@@H](O[C@@H]3O[C@H](CO)[C@@H](O)[C@H](O)[C@H]3O[C@@H]3O[C@@H](C)[C@H](O)[C@@H](O)[C@H]3O)C[C@]12C (some centres not stated)	-6%[5.1 µM]
Cc1c(CN2CCN(S(C)(=O)=O)CC2)sc2c(N3CCOCC3)nc(-c3cnc(N)nc3)nc12	33%[activator]
CC(C)(C)Oc1ccc(OCC2Cc3ccccc3CN2C(=O)c2cccc3ccccc23)cc1 (configuration not stated)	-16%
C#CCN(Cc1cc2c(=O)[nH]c(C)nc2cc1Br)c1ccc(C(=O)NCc2cccnc2)cc1	20%
CNCCCC1(c2ccccc2)OC(C)(C)c2ccccc21 (configuration not stated)	0%
O=C(O)COC(=O)Cc1ccccc1Nc1c(Cl)cccc1Cl	9%
CC(=O)Nc1nc(C)c(-c2ccc(Cl)c(S(=O)(=O)NCCO)c2)s1	-6%
CC(NC(CCc1ccccc1)C(=O)O)C(=O)N1C(=O)N(C)CC1C(=O)O (configuration not stated)	?
COc1cc(N2CCC(N3CCN(C)CC3)CC2)ccc1Nc1ncc(Cl)c(-c2c[nH]c3ccccc23)n1	18%
CC(=O)NC(C)c1cnc(-c2cnc(Oc3ccc(OC(C)C)cc3)s2)s1 (configuration not stated)	-2%
COc1cc(N2CCC(N3CCN(C)CC3)CC2)ccc1Nc1ncc(Cl)c(Nc2ccccc2S(=O)(=O)C(C)C)n1	63%[activator]
Cc1nnc(NS(=O)(=O)c2ccc(N)cc2)s1	10%
CCN(CC)CCOc1ccccc1C(=O)CCc1ccccc1	-3%
CCOc1ccn(-c2ccc(F)cc2)c(=O)c1C(=O)Nc1ccc(Oc2ccnc(N)c2Cl)c(F)c1	?
CCOC(=O)C1(CCOc2ccccc2)CCN(Cc2ccc(O)c(Cl)c2)CC1	9%
O=C1Nc2nc(-c3c(O)cccc3OCC3CC3)cc([C@@H]3CCCNC3)c2CO1	?
Nc1nccs1	-15%[39.2 µM]
Cc1cc(-c2nc(-c3ccc(OC(F)(F)F)cc3)no2)nn1Cc1ccnc(N2CCN(C3CC3)CC2)c1	-2%

Five entries from above, as a markdown table.
| SMILES | nsP2pro primary |
| --- | --- |
| CCN(CC)CCOc1ccccc1C(=O)CCc1ccccc1 | -3% |
| CCOc1ccn(-c2ccc(F)cc2)c(=O)c1C(=O)Nc1ccc(Oc2ccnc(N)c2Cl)c(F)c1 | ? |
| CCOC(=O)C1(CCOc2ccccc2)CCN(Cc2ccc(O)c(Cl)c2)CC1 | 9% |
| O=C1Nc2nc(-c3c(O)cccc3OCC3CC3)cc([C@@H]3CCCNC3)c2CO1 | ? |
| Nc1nccs1 | -15%[39.2 µM] |

Later entries.
SMILES	nsP2pro primary
Cc1cc(C(=O)Nc2cccc(C(=O)Nc3cccc(C(F)(F)F)c3)c2)on1	-14%
CCC[C@H](N[C@@H](C)C(=O)N1[C@H](C(=O)O)C[C@@H]2CCCC[C@@H]21)C(=O)OCC	-9%
O=C(Nc1ccc(Cl)cc1)Nc1ccc(Cl)c(C(F)(F)F)c1	16%
CC[C@H]1OC(=O)C[C@@H](O)[C@H](C)[C@@H](O[C@@H]2O[C@H](C)[C@@H](O)[C@H](N(C)C)[C@H]2O)[C@@H](CCN2C[C@H](C)C[C@H](C)C2)C[C@@H](C)C(=O)/C=C/C(C)=C/[C@@H]1CO[C@@H]1O[C@H](C)[C@@H](O)[C@@H](OC)[C@H]1OC	4%&2%
CNC(=O)c1cc(Oc2ccc(NC(=O)Nc3cc(C(C)(C)C)nn3-c3ccc4ncccc4c3)c(F)c2)ccn1	9%
CCCOC(=O)c1ccccc1	-4%
CC(C)NC(=O)c1ccc(C#Cc2ccncc2)cn1	-18%
COc1cncc(C#Cc2ccccn2)c1	-6%
C[C@H]1COc2c(N3CCN(C)CC3)c(F)cc3c(=O)c(C(=O)O)cn1c23	-3%
Cc1cnc(Nc2cccc(CN3CCOCC3)c2)nc1Nc1cccc(S(=O)(=O)NC(C)(C)C)c1	4%

Another view of 2 compounds above:
SMILES,nsP2pro primary
O=C1Nc2nc(-c3c(O)cccc3OCC3CC3)cc([C@@H]3CCCNC3)c2CO1,?
CC(C)NC(=O)c1ccc(C#Cc2ccncc2)cn1,-18%

(cont.)
SMILES	nsP2pro primary
CCCC(=O)O	-27%
O=C(NCC(O)CO)c1ccncc1Nc1ccc(I)cc1F (configuration not stated)	?
O=c1cc[nH]c(=O)[nH]1	-8%&-5%
c1ccc2c(CC3=NCCN3)cccc2c1	-3%
CCCCNc1ncc2c(-c3ccc(CN4CCN(C)CC4)cc3)cn(C3CCC(O)CC3)c2n1 (configuration not stated)	-8%
COc1cc(N)c(Cl)cc1C(=O)NC1CCN(CCCOc2ccc(F)cc2)CC1OC (configuration not stated)	5%
Cc1onc(-c2ccccc2Cl)c1C(=O)N[C@@H]1C(=O)N2[C@@H]1SC(C)(C)[C@@H]2C(=O)O	28%&-1%&-4%
O=C(O)c1ccc(Cc2c(-c3cccc(-c4ccccc4)c3)[nH]n(-c3nc(C(=O)O)cs3)c2=O)cc1	i
COc1cc(Nc2nc3c(s2)CCCC3c2ccc(F)cc2)ccc1-n1cnc(C)c1 (configuration not stated)	148%[activator]
CCN(CC)CCCCNc1ncc2cc(-c3c(Cl)cccc3Cl)c(NC(=O)NC(C)(C)C)nc2n1	47%[activator]
CN(C)c1nc(Cc2ccc(NC(=O)c3ccc(C(F)(F)F)cc3)cc2)nc(N(C)C)c1CC(=O)O	-11%
C[C@@H]1CN(Cc2ncccn2)C[C@H]1c1nc2c(cnn2C2CCOCC2)c(=O)[nH]1	-15%
CC(=O)[C@H]1CC[C@H]2[C@@H]3C[C@H](C)C4=CC(=O)CC[C@]4(C)[C@H]3[C@@H](O)C[C@]12C	1%
CCC(CC)C(c1ccc(Nc2nc3ccccc3s2)cc1)n1cncn1 (configuration not stated)	75%[activator]
CCc1cc(CN2CC(C(=O)O)C2)sc1-c1noc(-c2ccc(Oc3ccccc3)cc2)n1	21%[10 µM]
Cc1c(C2=CCN(C(=O)N(C)C(C)C)CC2)nnn1-c1cccnc1F	-4%
Cc1ccc(-c2ccc3c(ccc4sc5c(c43)NC[C@@H](C)NC5=O)n2)cn1	?
CCN(CCCOc1ccc2c(Nc3cc(CC(=O)Nc4cccc(F)c4)[nH]n3)ncnc2c1)CCOP(=O)(O)O	29%
CNc1nc(NCc2ccc(NS(C)(=O)=O)cc2Cl)cc(-c2ccccn2)n1	177%[activator]
O=C1c2ccc(Nc3ccc(F)cc3F)cc2CCc2ccc(OCC(O)CO)cc21 (configuration not stated)	140%[activator]
CN(C)CCN(Cc1ccsc1)c1ccccn1	-10%
Nc1cc(-c2ccncc2)c[nH]c1=O	3.5µM*
C[C@@H](NC(=O)c1ncnc(N)c1Cl)c1ncc(C(=O)Nc2cc(C(F)(F)F)c(Cl)cn2)s1	10%
CC(Oc1c(Cl)cccc1Cl)C1=NCCN1 (configuration not stated)	-1%
C[C@]12CC[C@H]3[C@@H](CCC4=CC(=O)CC[C@@]43C)[C@@H]1CC[C@@H]2C(=O)CO	-18%
Cc1ccc(Cl)cc1N(CC(=O)Nc1c(F)cccc1F)S(C)(=O)=O	-9%
N#Cc1ccc(O[C@@H]2c3ccccc3C[C@H]2N2CCC[C@@H](N)C2)c(Cl)c1	36%
Cn1cc(-c2cnc3ccc4ccc(CS(=O)(=O)NCc5ccccn5)cc4c(=O)c3c2)cn1	82%[activator]
COc1cc(C)c(Sc2cnc(NC(=O)c3ccc(CNC(C)C(C)C)cc3)s2)cc1C(=O)N1CCN(C(C)=O)CC1 (configuration not stated)	41%[activator]
CCOc1ccc(-c2nc(-c3cccc4c3CCC4NCCO)no2)cc1OCC (configuration not stated)	3%
Cc1nc2ccc(-n3ncc(C(=O)c4cc5ccccc5[nH]4)c3N)cc2[nH]1	179%[activator]
O=C(O)CN1C(=O)c2cccc3cccc(c23)C1=O	?
CCCc1ccc(OCC(=O)N2CCN(C(=O)COc3ccc(CCC)cc3OC)CC2)c(OC)c1	-2%
CCOC(=O)c1cccc(N)c1	4%
COc1cc2c(Oc3ccc(-c4cnc(Nc5ccc(F)cc5)n(C)c4=O)cc3F)ccnc2cc1OCCCN1CCOCC1	24%
COc1ccc(-n2c(=O)[nH]c3cc(C(=O)NCc4ccc(Cl)cc4)sc3c2=O)nc1OC	10%
CC1=NN(c2ccccc2)C(=O)C1	0.035µM*!
